Rango complex inh: inhibitors of Rango-importin beta complex formation. 340,000 compounds, 0.031% hits. Q14974. Rango CFP/YFP FRET sensor + importin beta, 45 min. Potency, µM (series often up to 92.2 µM), without a hit: at the highest dose inhibition of complex formation; active = rising FRET ratio curve, often small or poorly fitted; inconclusive = mostly compound fluorescence or quenching in the first reads; inactive = flat curves in all reads;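 note: potency is the fitted concentration of half-maximal effect; 0% = DMSO wells and 100% = buffer wells lacking importin beta; nearly all actives have a fitted effect of over 15% in size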
Target sequence (Q14974 whole entry, looked up): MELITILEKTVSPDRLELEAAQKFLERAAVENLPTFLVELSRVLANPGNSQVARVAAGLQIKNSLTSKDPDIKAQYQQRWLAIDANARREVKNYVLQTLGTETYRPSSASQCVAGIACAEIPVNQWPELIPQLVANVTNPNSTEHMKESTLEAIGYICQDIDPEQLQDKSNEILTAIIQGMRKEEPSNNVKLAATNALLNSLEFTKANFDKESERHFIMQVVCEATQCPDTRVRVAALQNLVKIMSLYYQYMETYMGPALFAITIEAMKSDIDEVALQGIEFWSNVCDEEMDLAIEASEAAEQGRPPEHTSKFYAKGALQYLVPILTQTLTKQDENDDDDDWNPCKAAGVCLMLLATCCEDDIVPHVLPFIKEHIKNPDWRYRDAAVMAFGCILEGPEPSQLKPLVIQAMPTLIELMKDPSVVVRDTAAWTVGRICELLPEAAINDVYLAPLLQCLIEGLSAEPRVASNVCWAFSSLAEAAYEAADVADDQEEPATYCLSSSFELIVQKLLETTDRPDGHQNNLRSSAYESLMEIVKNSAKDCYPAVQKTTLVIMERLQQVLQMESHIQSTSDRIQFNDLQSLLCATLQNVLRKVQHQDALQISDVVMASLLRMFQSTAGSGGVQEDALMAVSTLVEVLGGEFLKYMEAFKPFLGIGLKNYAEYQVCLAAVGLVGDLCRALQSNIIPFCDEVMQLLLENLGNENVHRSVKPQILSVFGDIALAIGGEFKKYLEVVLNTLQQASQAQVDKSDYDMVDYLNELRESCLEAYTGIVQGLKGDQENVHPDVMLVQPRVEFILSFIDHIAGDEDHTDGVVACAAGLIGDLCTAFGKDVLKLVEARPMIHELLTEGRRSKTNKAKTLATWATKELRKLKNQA
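FRET biosensor Rango (snurportin 1 IBB between N-terminal EYFP and C-terminal Cerulean), 50 nM in PBS/1 mM DTT/0.02% Tween-20/0.1% BSA, preincubated 5 min RT with compound; 0.125 microM importin beta added, 45 min RT, CFP/YFP FRET ratio read.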
Rango dissoc inh: inhibitors of RanGTP-induced Rango-importin beta complex dissociation | O95149+P62826 | Biochemical FRET Rango-importin beta, RanGTP-induced dissociation | Potency, µM (series often up to 46.1 µM), without a hit: at the top dose activity change, negative = inhibition | 340,000 compounds, 0.071% hits | AID 540253; active means falling FRET ratio curve, often poorly fitted, with flat reads before Ran was added; inconclusive means other falling curves, or compound fluorescence or quenching; inactive means flat or rising ratio curve;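 note: potency is the fitted concentration of half-maximal effect; % of control where 0% means no effect; nearly all actives have a fitted effect of over 45% in size; -100% = wells without RanGTP and RCC1; the record marks most hits as doubtful in a second field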
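Recombinant Rango FRET biosensor (EYFP–snurportin 1 IBB–cerulean CFP10) at 0.1 uM premixed with 0.25 uM importin beta in PBS, 1 mM DTT, 0.02% Tween-20, 0.1% BSA. Compound added 5 min; RanGTP-RCC1 (0.6 uM Ran, 2 mM GTP, 0.2 uM RCC1) then triggers release, read at 45 min.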
GLA inh pH 4.5: blocks human alpha-galactosidase A at pH 4.5; P06280; purified enzyme, 4-MU-alpha-Gal fluorescence, pH 4.5; activity change, negative = inhibition, % at 105 µM; 230,000 tested, under 10 active; AID 1467; inconclusive = small, poorly fitted or top-dose-only inhibition, or a rising curve; inactive = flat fitted curve, though single readings scatter; no compound was filed as active;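 note: 0% = full activity with enzyme and -100% = basal without enzyme; dose as in the result columns while the protocol names 77 µM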
miR-21 FLuc: raises the signal of a miR-21 reporter | HeLa miR-21 FLuc reporter, luciferase, 48 h | Potency, µM (highest dose often 38.3 µM), for inactives: top-dose reporter change, positive = more light | 340,000 tested, under 10 active | AID 2288; active = well fitted rising curve with a large enough effect; inconclusive = small, poorly fitted or top-dose-only effect; inactive = no such curve, though single readings can be large or run the other way;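 note: % of control where 0% means no effect; miR-21 action dims this reporter so a rising signal means less miR-21 action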
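HeLa cells stably expressing CMV-driven firefly luciferase with a downstream miR-21 binding sequence, endogenously expressing miR-21, were treated with titrations (up to about 40uM final) for 48 hours at 37 degree Celsius. Luciferase luminescence was read after lysis.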
An asterisk follows results filed as active; ? = inconclusive; nt = no result given. These rows are one share of the data; rates above refer to the full screens.

SMILES	Rango complex inh	Rango dissoc inh	GLA inh pH 4.5	miR-21 FLuc
CCOc1cc(/C=N/NC(=O)C(=O)NCc2ccc3c(c2)OCO3)ccc1OCC(=O)N1CCOCC1	1.5%	0.4%	nt	-0.2%
CCCCC(=O)NC(=S)Nc1nnn(CCC)n1	8.8%	-11.1%	3.0	-7.7%
CC(C)(C)c1ccc(-c2noc(C(=O)NN)n2)cc1	4.1%	12.1%	-8.4	-20.5%
COc1ccc(-c2n[nH]c3c2CN(C(=O)c2ccc(F)cc2)CC3)cc1	-0.2%	14.7%	nt	-16.5%
O=[N+]([O-])c1ccc(CS(=O)(=O)c2ncn[nH]2)cc1	5.2%	-0.2%	nt	0.0%
CC(=O)NCCC1CCN(C(=O)C2CCC(=O)N(C3CCCC3)C2)CC1 (centres undefined)	3.1%	1.2%	nt	-2.0%
COc1ccc(NC(=O)c2nn(C34CC5CC(CC(C5)C3)C4)cc2[N+](=O)[O-])cc1	-1.8%	15.4%	-11.2	-14.6%
O=C(c1cc(F)c(F)c(F)c1F)N1CCN(Cc2ccc3c(c2)OCO3)CC1	0.1%	-7.6%	nt	5.5%
CC(C)(C)OC(=O)N[C@@H](Cc1ccccc1)c1nnc(SCC(=O)c2ccc(Cl)cc2)o1	2.1%	-4.4%	7.0	3.6%
c1ccc(-c2ccc(-c3ccncn3)cc2)cc1	0.7%	-8.6%	nt	nt
O=S(=O)(c1ccc(S(=O)(=O)N2CCCN(Cc3ccccc3)C2)cc1)N1CCCCCC1	?	-18.0%	9.7	-4.2%
O=C(CNC(=O)c1cccc(OC(F)F)c1)OCC(=O)c1ccccc1	0.4%	8.2%	1.5	-0.6%
CCOc1ccc(C(=O)N2CCN(C(=O)c3ccco3)CC2)cc1OCC	-0.9%	25.9%	4.9	-2.8%
O=C1CCCc2c1[nH]c1ccc(Br)cc21	-0.4%	-1.1%	2.2	-22.6%
CCc1noc(C)c1C(=O)Nc1cc(Cl)ccc1-n1cncn1	-1.9%	-9.2%	nt	nt
Cc1ccc(C(=O)NCC(=O)OCCCOC(=O)CNC(=O)c2ccc(C)c(C)c2)cc1C	0.3%	?	nt	nt
O=C(Nc1ccc2c(c1)OCO2)C1CC1(Cl)Cl (centres undefined)	-1.3%	5.0%	nt	nt
S=C(NCCc1ccccc1)Nc1ccc(Br)cc1	-4.9%	27.8%	-0.2	-36.7%
COC(=O)c1ccccc1NC(=O)Cn1cnc([N+](=O)[O-])c1	-2.1%	-3.6%	nt	-4.2%
COCCOCC(O)CN1CCN(c2ccccc2)CC1 (centres undefined)	1.3%	-3.5%	1.0	-0.9%
Cc1csc(NC(=O)CCNC(=O)c2ccc([N+](=O)[O-])cc2)n1	8.7%	-8.1%	-15.0	-2.5%
CCN(CC(=O)NCCc1ccccc1)S(=O)(=O)c1ccc(Br)cc1	1.8%	-0.1%	-4.6	0.6%
O=C(NCc1cccnc1)c1ccc(COc2ccccc2Cl)o1	-1.4%	8.8%	-25.4	1.3%
CC(=O)Nc1ccc(C(=O)Nc2nc(-c3cccnc3)cs2)cc1	1.7%	12.2%	-4.7	0.0%
COc1ccc(C(=O)NNC(=O)Nc2ccc(C)cc2)cc1	1.8%	2.3%	-0.5	-22.1%
O=c1c2cnn(-c3ccccc3)c2ncn1CCc1ccccc1	2.7%	1.6%	-2.1	-29.2%
O=C(NC(Cc1ccccc1)C(=O)NCc1ccccn1)c1ccco1 (centres undefined)	0.2%	-15.0%	-9.9	-7.4%
O=C(COC(=O)c1cccc(O)c1)Nc1nnc(-c2ccccc2)o1	5.3%	0.6%	nt	nt
O=C(O)c1ccccc1C(=O)Nc1ccc(-n2nc(C(F)(F)F)cc2C(F)(F)F)cc1	0.5%	-5.2%	3.6	-1.9%
O=C(c1ccc(COc2ccc3ccccc3c2)o1)N1N=C(C(F)F)CC1(O)C(F)F (centres undefined)	0.6%	-6.3%	1.4	-8.0%

Ordered by formula weight (highest first): 3 of the compounds above.
SMILES	Rango complex inh	Rango dissoc inh	GLA inh pH 4.5	miR-21 FLuc
O=C(c1ccc(COc2ccc3ccccc3c2)o1)N1N=C(C(F)F)CC1(O)C(F)F (centres undefined)	0.6%	-6.3%	1.4	-8.0%
O=C(NCc1cccnc1)c1ccc(COc2ccccc2Cl)o1	-1.4%	8.8%	-25.4	1.3%
O=C(COC(=O)c1cccc(O)c1)Nc1nnc(-c2ccccc2)o1	5.3%	0.6%	nt	nt

One compound at a time, as listed above. Values in the order: Rango complex inh, Rango dissoc inh, GLA inh pH 4.5, miR-21 FLuc
Shown for CC(C)(C)c1ccc(-c2noc(C(=O)NN)n2)cc1 → 4.1%, 12.1%, -8.4, -20.5%
Shown for O=[N+]([O-])c1ccc(CS(=O)(=O)c2ncn[nH]2)cc1 → 5.2%, -0.2%, nt, 0.0%
Shown for O=C(c1cc(F)c(F)c(F)c1F)N1CCN(Cc2ccc3c(c2)OCO3)CC1 → 0.1%, -7.6%, nt, 5.5%

(list continues)
SMILES	Rango complex inh	Rango dissoc inh	GLA inh pH 4.5	miR-21 FLuc
COc1ccc(-c2ccc(-c3noc(-c4ccccc4C)n3)c(OC)n2)cc1	?	6.51µM*	-5.9	-7.8%
CCC(=O)Nc1nc2nc(-c3ccccc3)cc(-c3ccccc3)n2n1	-1.9%	-8.4%	0.2	-7.4%
Cc1ccc(CCNC(=O)CCNS(=O)(=O)c2ccc3c(c2)c(=O)n(C)c(=O)n3C)cc1	0.2%	3.0%	4.3	-1.1%
CC1(C)CC(=O)N(c2cccc(C(F)(F)F)c2)C(=O)C1	6.7%	6.6%	nt	-0.8%
COc1ccc(/C=C2\SC(=S)N(NC(=O)c3ccncc3)C2=O)cc1OC	nt	nt	2.4	2.4%
Cc1cccnc1NC(=O)c1ccc([N+](=O)[O-])o1	-1.0%	-12.6%	-20.9	0.7%
CCSc1nnc(-c2ccccc2SC)o1	0.2%	3.5%	8.7	-28.4%
CCCCn1c(Cl)nc2c1c(=O)n(C)c(=O)n2C	0.5%	13.5%	5.7	-1.9%
O=C(COC(=O)C(O)C(O)C(=O)OCC(=O)c1ccc(C(F)(F)F)cc1)c1ccc(C(F)(F)F)cc1 (centres undefined)	0.4%	-8.4%	-8.5	-0.9%
Cc1ccnc(SCC(=O)c2cc3ccccc3o2)n1	2.8%	5.5%	-9.7	-30.0%
COc1ccc(OC)c(C2C(C(=O)N(C)C)=C(C)Nc3nc4ccccc4n32)c1 (centres undefined)	0.3%	19.8%	-1.2	-3.4%
COc1ccc(-c2cc(=O)oc3cc(OCC(=O)N4C[C@H]5C[C@@H](C4)c4cccc(=O)n4C5)ccc23)cc1	-5.6%	1.9%	nt	-1.2%
O=C(CCCCn1c(=O)c2ccccc2n(Cc2ccc(Cl)cc2)c1=O)NCc1ccco1	-0.1%	-12.0%	-6.5	8.7%
COc1ccc(Br)cc1-c1nc(C)c(C(C)=O)n1O	-2.5%	16.2%	-2.9	-0.3%
Nc1nc(NCCc2ccccc2)nc(NCCO)c1[N+](=O)[O-]	-1.4%	2.8%	nt	-19.7%
Cc1ccc(CNC(=O)CN(C(=O)C2(C)CC(=O)N=C3C=CC=CN32)c2ccc(F)cc2)cc1 (centres undefined)	-3.6%	3.2%	nt	6.4%
COc1ccc(CCN2CC(C(=O)OC(C)C(=O)Nc3cccc(Cl)c3)CC2=O)cc1OC (centres undefined)	6.8%	14.5%	nt	nt
CC(=O)NC(CSc1cc(C)nc2ccc(Br)cc12)C(=O)O (centres undefined)	-0.4%	1.1%	-1.2	4.6%
Cc1oc2c(C)c3oc(=O)c(CCC(=O)N[C@@H](CC(C)C)C(=O)O)c(C)c3cc2c1C	?	-17.3%	nt	7.0%
Cc1ccc(CN2CCc3c(OCC(=O)Nc4cccc(C)c4C)cccc3C2=O)cc1	nt	nt	-16.2	0.5%
O=c1c2ccccc2nc(/C=C/c2ccc([N+](=O)[O-])o2)n1CCCO	10.0%	-11.9%	1.4	?
CCN(CC)c1cc(-c2ccccc2)ncn1	?	13.5%	1.3	-30.0%
NS(=O)(=O)c1cc(C(=O)NCC2CCCCC2)ccc1Cl	-0.8%	8.0%	nt	-7.7%
CCOc1ccc(NC(=S)N2CCCC2)cc1	0.9%	20.7%	nt	-36.1%
CC(=O)c1ccc(NC(=O)Cn2cnc(S(=O)(=O)N3CCC(C)CC3)c2)cc1	-0.5%	5.3%	nt	-2.1%
N#Cc1ccccc1Sc1ccccc1C(=O)NCC(c1ccco1)N1CCCCC1 (centres undefined)	?	?	nt	nt
Cc1ccc(C)c(NC(=O)c2cc(-c3ccccc3O)n[nH]2)c1	0.5%	7.4%	nt	-45.7%
CCC(C)N(C(=O)COC(=O)C1CCN(S(=O)(=O)c2ccc(C)c(C)c2)CC1)C1CCS(=O)(=O)C1 (centres undefined)	-3.6%	-4.9%	nt	nt
Cc1ccc2cc(C3CC(c4cccs4)=NN3S(C)(=O)=O)c(Cl)nc2c1 (centres undefined)	?	10.5%	-12.8	-18.1%
COc1ccc(NC(=O)CN(C)C(=O)c2cccc(S(=O)(=O)Nc3ccc(F)cc3)c2)cc1	2.3%	-9.0%	nt	nt

Individual results from the list:
For Rango complex inh, `COC(=O)c1ccccc1NC(=O)Cn1cnc([N+](=O)[O-])c1` has the entry -2.1%
For Rango complex inh, `CCOc1ccc(C(=O)N2CCN(C(=O)c3ccco3)CC2)cc1OCC` has the entry -0.9%
For Rango dissoc inh, `Cc1ccnc(SCC(=O)c2cc3ccccc3o2)n1` has the entry 5.5%
For GLA inh pH 4.5, `CC(C)(C)OC(=O)N[C@@H](Cc1ccccc1)c1nnc(SCC(=O)c2ccc(Cl)cc2)o1` has the entry 7.0

(next part)
SMILES	Rango complex inh	Rango dissoc inh	GLA inh pH 4.5	miR-21 FLuc
Cc1nn2c(-c3ccc(S(=O)(=O)N4CCN(CCO)CC4)o3)nnc2c2ccccc12	1.3%	0.3%	nt	-23.8%
CC(C)c1ccc(S(=O)(=O)N2CCN(C(=O)C3CCCCC3)CC2)cc1	-2.4%	-4.2%	nt	1.7%
CCn1nccc1C(=O)NC1=C(C#N)CCC1	-4.4%	-14.4%	-5.3	4.1%
COCCOC(=O)C1=C(N)OC2=C(C(=O)CC(C)(C)C2)C1c1ccncc1 (centres undefined)	-0.2%	-10.7%	-5.8	-10.7%
O=S(=O)(c1cccc2cccnc12)N1CCOCC1	-3.1%	3.7%	1.9	-0.6%
COc1ccc([N+](=O)[O-])c(S(=O)(=O)c2ccccc2)n1	-4.6%	-9.8%	-9.3	?
O=C(Nc1ccc(N2CCOCC2)cc1)Nc1ccc2nc(-c3ccco3)c(-c3ccco3)nc2c1	?	?	-4.4	12.5%
Cc1ccc(OCC(=O)c2cc(C)n(C)c2C)c([N+](=O)[O-])n1	-3.5%	-1.3%	6.0	-38.2%
Cc1[nH]ccc(=O)c1OCC(=O)O	-0.3%	-10.0%	5.5	0.0%
Cc1c(CN(C)C(=O)CSc2nc(-c3ccco3)cc(C(F)(F)F)n2)cnn1C	2.7%	-14.4%	4.1	-1.2%
Cc1ccc(-n2cc(CNCC3CC(=O)N(C4CC4)C3)c(-c3cccc(C)c3)n2)cc1 (centres undefined)	?	10.8%	-9.7	-10.2%
COc1ccccc1OCCn1cc(C#N)c2ccccc21	-0.1%	3.9%	-13.5	-21.5%
